T cruzi repl = blocks replication of Trypanosoma cruzi; T. cruzi beta-gal in NIH3T3, luminescence, 90 h; inhibition, % (concentration not given with the values); 1.4% of 300,000 active;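 active means mean inhibition across valid replicates above about 55%, limit read from the data; inconclusive means mean below that limit but half or more replicates reach it; inactive means mean below it, under half of replicates reach it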;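 further: signal also drops with host cell toxicity which is not excluded here; 0% = plate median of DMSO wells and 100% = zero luminescence signal; higher percent means less beta-gal luminescence so fewer parasites; stock transfer was 50 nL into about 50 µL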
Beta apoptosis = beta cell apoptosis inhibition; INS-1E cytokine-induced death, ATP luminescence, 48 h; percent of positive-control rescue, neutral wells zero; protection from apoptosis, % (no concentration beside the values); 0.8% of 300,000 active; AID 435005;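 active means all replicates at 75% or more, or half of them and the mean; inconclusive means half reach 75% but not the mean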;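 further: 0% = cytokine-treated negative control wells and 100% = positive control rescue; higher means more ATP so stronger rescue from cytokine killing; wells of about 40 µL received 100 nL stock; the first replicate is given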
Calb FLC = affects C. albicans growth with fluconazole; C. albicans CaCi-2 (fluconazole-resistant clinical isolate) + fluconazole, Alamar Blue growth, 48 h; growth inhibition, % (test concentration not listed); 0.57% of 300,000 active;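 active means most replicates above 75%; inconclusive means exactly half above 75%; inactive means most below 75%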;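 further: all wells also contain fluconazole at 8 µg/ml as a sub-toxic cotreatment; 0% = median of DMSO wells and 100% = median of geldanamycin control wells; wells of about 8 µL received 7.5 nL stock; the first replicate is given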
rRNA inh HTS = inhibitors of bacterial rRNA selective over humanized ribosomes. E. coli WT GFP vs humanized-ribosome RFP mutants, fluorescence, 24 h; stronger effect = lower value; DMSO median 0, no signal -100. GFP signal change (wild-type ribosome), % (concentration not given with the values). 1.6% of 350,000 active;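 active means significant combined selectivity score with lowered wild-type GFP, culture density cut under 30%, mutant RFP and density less affected; inactive means any of these conditions unmet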; further: one replicate is shown; some compounds called inactive have numbers as strong as hits
MLL AF4-AF9 inh = MLL-AF4/AF9 protein interaction inhibition | P42568 | AlphaScreen, biotin-AF4 peptide binding to FLAG-AF9 | inhibition, % at 10 µM | 0.47% of 350,000 active;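 active means every replicate reaching a set inhibition limit, whatever the replicate mean, cut at about 25% in these data; inconclusive means mean inhibition reaches that limit but some replicates miss it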;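 further: 0% = plate neutral control median and 100% = total signal loss; the record names both 10 and 1 µM as test concentration; the first replicate is given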
Target sequence (P42568 whole entry, looked up): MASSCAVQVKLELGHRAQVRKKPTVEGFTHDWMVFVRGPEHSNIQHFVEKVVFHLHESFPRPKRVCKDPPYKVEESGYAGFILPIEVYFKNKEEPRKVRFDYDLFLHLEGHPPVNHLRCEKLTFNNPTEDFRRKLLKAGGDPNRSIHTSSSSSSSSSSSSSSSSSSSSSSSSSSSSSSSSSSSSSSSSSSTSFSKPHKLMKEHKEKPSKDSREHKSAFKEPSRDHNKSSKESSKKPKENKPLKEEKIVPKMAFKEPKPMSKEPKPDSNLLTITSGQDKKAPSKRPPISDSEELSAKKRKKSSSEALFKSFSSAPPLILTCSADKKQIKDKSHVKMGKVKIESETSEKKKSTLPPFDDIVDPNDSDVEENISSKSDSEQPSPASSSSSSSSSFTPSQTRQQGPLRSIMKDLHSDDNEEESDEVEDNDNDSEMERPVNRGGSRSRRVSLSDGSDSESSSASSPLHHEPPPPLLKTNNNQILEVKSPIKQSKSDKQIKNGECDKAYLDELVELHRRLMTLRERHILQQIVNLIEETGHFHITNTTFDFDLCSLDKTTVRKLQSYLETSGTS
FGF22 binding = FGF22 (human) thermal shift binding; Q9HCT0; recombinant FGF22 thermal shift, SYPRO orange fluorescence; percent of sucrose octasulfate shift, DMSO zero; calls only at 9.99 µM; 1.5% of 340,000 active; AID 651658;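 active means melting point raised past a set limit in the mean and every replicate; inconclusive means no clear call; three in four hits are not shown here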
Target sequence (Q9HCT0 whole entry, looked up): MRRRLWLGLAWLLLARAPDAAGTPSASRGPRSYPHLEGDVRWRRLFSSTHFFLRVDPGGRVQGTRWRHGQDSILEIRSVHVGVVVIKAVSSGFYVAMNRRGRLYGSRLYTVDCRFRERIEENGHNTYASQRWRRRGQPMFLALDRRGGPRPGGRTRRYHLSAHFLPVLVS
RanGTP-Imp inh = inhibitors of RanGTP-importin-beta interaction, primary screen, biochemical, FRET, CFP-Ran, YFP-importin-beta, homogeneous; inhibition, % (test concentration not listed); 1.1% of 300,000 active; cell-free CFP-Ran/YFP-importin-beta FRET ratio;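 active means most replicates above 15%; inconclusive means exactly half above 15%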;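 further: 0% = DMSO wells and 100% = Ran loaded with GDP instead of GTP; wells of about 40 µL received 100 nL stock; the first replicate is given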
ALR H2O2 inh = inhibitors of human sulfhydryl oxidase ALR. P55789. purified ALR, DTT oxidation, H2O2 HRP-luminol luminescence. inhibition, % (concentration not given with the values). 3.8% of 290,000 active. AID 485317;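 active means mean and each replicate at 75% or more; inconclusive means only one of the two met; inactive means neither met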;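 further: stock transfer was 7.5 nL into about 7.5 µL; 0% = neutral wells and 100% = wells with inactivated enzyme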
Target sequence (P55789 whole entry, looked up): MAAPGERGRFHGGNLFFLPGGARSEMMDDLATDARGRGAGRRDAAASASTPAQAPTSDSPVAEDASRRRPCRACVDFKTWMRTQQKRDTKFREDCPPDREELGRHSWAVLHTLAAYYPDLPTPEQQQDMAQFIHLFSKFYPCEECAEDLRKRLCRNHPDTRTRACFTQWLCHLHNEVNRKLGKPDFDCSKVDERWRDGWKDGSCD
rRNA inh HTS OD600 = also measured in rRNA inh HTS; calls as there; OD600 change, %; measured here: OD600 growth;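 optical density of the mix in the first replicate; 0 = DMSO median and -100 = no signal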
rRNA inh HTS RFP = also measured in rRNA inh HTS; calls as there; RFP signal change, %; measured here: RFP humanized mutant strains;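 first replicate; 0 = DMSO median and -100 = no signal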
* = called active by the depositor; i = inactive; ? = inconclusive; / = no result given. Only part of the results is shown; count on the stated rates, not on these rows.

SMILES	T cruzi repl	Beta apoptosis	Calb FLC	rRNA inh HTS	rRNA inh HTS OD600	rRNA inh HTS RFP	MLL AF4-AF9 inh	FGF22 binding	RanGTP-Imp inh	ALR H2O2 inh
COc1cc(/C=N/NC(=O)C(=O)/C=C2\NC3(CCCC3)Cc3ccccc32)ccc1O	22	0	-5	-17	-13	2.4	-1.0	i	0.0	21
CC(=O)c1cccc(NC(=O)CSc2nc(=O)n(CCCN3CCOCC3)c3c2CCC3)c1	-2	/	7	3	12	-0.2	-5.5	i	-0.3	98*
COc1cc(CNCc2ccccn2)ccc1OCc1ccc(Cl)cc1	-19	0	-18	3	-7	3.2	11	i	4.7	-6
O=c1c2ccccc2ncn1CCCCOc1ccccc1F	-13	/	1	-17	-9	1.0	-3.5	i	-6.4	10
Cc1ccc(OCC(=O)NC2CCCC2)c(C)c1	-4	-6	-15	/	/	/	/	/	-2.5	6
CC(=O)Nc1cc(C(=O)OC(C(=O)c2ccccc2)c2ccccc2)ccc1C (stereo not given)	-12	-3	?	/	/	/	/	/	1.9	-4
CCOC(=O)C1C(c2ccc(OC)cc2)N(C)OC1(O)C(F)(F)F (stereo not given)	-9	-4	-3	6	5	2.3	-0.8	/	22*	-4
O=C(Nc1cccc(O)c1)c1ccccc1[N+](=O)[O-]	-13	-4	5	11	8	-2.2	-1.9	i	0.9	11
CCCCCCN(C(=O)CCCCCN1C(=O)NC(c2ccc(-c3ccccc3)cc2)C(C(=O)OCc2ccccc2)=C1C)C(C(=O)NCCCC)c1ccc(OCC(=O)OC)cc1 (stereo not given)	10	-6	-2	/	/	/	/	/	-3.2	-4
COc1ccccc1C(=O)N/C(=C/c1ccccc1)C(=O)NC(CCSC)C(=O)O (stereo not given)	-16	-1	-6	2	8	-0.7	8.1	i	4.4	1
COc1ccc(CNC(=O)c2c(O)c3ccccc3n(C)c2=O)cc1	-7	-3	-37	9	14	-0.9	-0.6	i	-6.4	-10
COc1ccc(C2=CSC3=NCCN23)cc1	-4	6	-29	3	-1	0.4	-0.6	i	1.8	53
CCC(C(=O)N1CCN(c2cccc(Cl)c2)CC1)c1ccccc1 (stereo not given)	4	2	-18	/	/	/	/	/	2.0	-4
Cc1nn(-c2ccccc2)c(Cl)c1/C=N/Nc1nncc(=O)[nH]1	6	7	5	-15	-15	-12	-0.4	i	1.9	/
O=C(Nc1ccc(F)cc1)c1cccc(C(=O)Nc2ccc(F)cc2)c1	-9	0	0	1	11	3.8	0.3	i	-0.1	-17
COc1cccc(Cn2cnc3c(NS(=O)(=O)c4ccc(Cl)cc4)c(C)c(C)cc32)c1	-27	-5	-4	/	/	/	/	/	-2.7	-5
O=C(C[n+]1cc(-c2ccc(F)cc2)n2c1CCC2)Nc1nc(-c2ccc(F)cc2)cs1	-21	19	-9	/	/	/	/	/	5.3	-6
O=C(Nc1cccc2cccnc12)C1CCCC1	1	8	5	0	-2	0.0	0.3	i	-1.5	/
CCC(CCC(=O)Nc1cccc(C(=O)O)c1)C(=O)O (stereo not given)	-5	1	-10	/	/	/	/	/	2.9	0
O=C(O)CCCC(=O)Nc1ccc(Cl)cc1	-2	0	5	11	11	1.2	0.4	i	-3.4	2
CCc1ccc(-c2cc3c(=O)n(CC(=O)NCc4ccccc4F)ncn3n2)cc1	-14	-2	2	9	12	14	-1.2	/	1.4	-6
CCCCC(c1nnnn1C1CCCC1)N1CCN(C2CCCCC2)CC1 (stereo not given)	-20	3	-3	/	/	/	/	/	0.7	3
C#CCOCCOCCOCCNc1nc(N2CCN(C(=O)[C@H](CCC(=O)O)n3cc(C(N)Cc4ccc(O)cc4)nn3)CC2)nc(N2CCN(C(=O)[C@H](Cc3cc4ccccc4[nH]3)n3cc(C(N)[C@H](C)CC)nn3)CC2)n1 (stereo not given in full)	-8	3	-16	/	/	/	/	/	-1.0	-6
CS(=O)(=O)c1ccc(Cl)c(NC(=O)CNC(=O)c2ccc3c(c2)OCO3)c1	/	-9	/	3	9	0.3	0.0	i	/	-5
Cc1ccc(OCC(=O)NNC(=O)c2cccnc2)cc1	1	-2	15	/	/	/	/	/	-0.7	-10
CN(N=Nc1cccc([N+](=O)[O-])c1)c1ccccc1	-9	2	-29	3	15	-7.2	3.1	i	-0.6	1
CC(=O)Nc1ccc(/C(C)=N/Nc2nc(N3CCOCC3)nc(N3CCOCC3)n2)cc1	29	1	15	16	16	-0.9	-3.3	i	2.1	-6
O=C(NCc1ccco1)c1cc(-c2ccncc2)nc2ccccc12	-4	0	0	/	/	/	/	/	-7.9	1
C=CCn1c(C)cc(C(=O)COC(=O)/C=C/c2c(C)nn(C3CCS(=O)(=O)C3)c2Cl)c1C (stereo not given)	4	-1	-1	-14	-10	0.2	-11	i	?	1
COc1cc(C(=O)Sc2ccc(Cl)cc2)cc(OC)c1OC	32	/	0	/	/	/	/	/	7.7	-27
Cc1cccc(N=C2NC(=O)CS2)c1C	-21	-3	-2	5	4	5.9	-3.1	i	1.0	-7
CS(=O)(=O)c1ccc(Cl)c(NC(=O)Cc2ccccc2F)c1	-7	-4	5	9	9	-0.3	0.1	i	0.9	-8
O=C(NC1CCCCC1)C(c1ccccc1)N(Cc1ccc2c(c1)OCO2)C(=O)c1cnsn1 (stereo not given)	16	4	-3	/	/	/	/	/	0.3	3
Cc1cccnc1NC(=O)CSc1nnc(Cc2ccccc2)o1	-16	-3	-5	/	/	/	/	/	-0.4	-4
O=C(N/N=C/c1cccs1)c1ccc2nc[nH]c2c1	-6	-1	0	13	8	-0.2	-0.3	i	0.2	1
CCc1ccc[n+](-c2[nH]c(=O)sc2/C=N/N=C(\[O-])c2cccnc2)c1	-8	-3	7	3	2	-1.9	-1.6	i	-2.3	2
COc1ccccc1/C=C/C(=O)OCC(=O)Nc1c(F)cccc1F	6	-4	-8	16	9	-3.2	-2.6	/	1.7	-12
COc1cc(C(C(=O)NC2CCCC2)N(CCO)C(=O)Cn2nnc(-c3ccc(C)o3)n2)ccc1O (stereo not given)	1	3	-5	6	8	2.0	-5.1	i	-0.6	18
O=C(CC1CCCCC1)Nc1ccc(-c2ccc3nncn3n2)cc1	-13	7	5	12	6	1.4	-5.6	i	-0.5	-3
O=Cc1ccc(C(=O)O)cc1	/	-1	/	3	7	-0.4	/	i	/	28

Complete entries, quoted from the list.
Entry for `Cc1ccc(OCC(=O)NNC(=O)c2cccnc2)cc1` : T cruzi repl: 1; Beta apoptosis: -2; Calb FLC: 15; rRNA inh HTS: /; rRNA inh HTS OD600: /; rRNA inh HTS RFP: /; MLL AF4-AF9 inh: /; FGF22 binding: /; RanGTP-Imp inh: -0.7; ALR H2O2 inh: -10
Entry for `CS(=O)(=O)c1ccc(Cl)c(NC(=O)CNC(=O)c2ccc3c(c2)OCO3)c1` : T cruzi repl: /; Beta apoptosis: -9; Calb FLC: /; rRNA inh HTS: 3; rRNA inh HTS OD600: 9; rRNA inh HTS RFP: 0.3; MLL AF4-AF9 inh: 0.0; FGF22 binding: i; RanGTP-Imp inh: /; ALR H2O2 inh: -5

Next section:
SMILES	T cruzi repl	Beta apoptosis	Calb FLC	rRNA inh HTS	rRNA inh HTS OD600	rRNA inh HTS RFP	MLL AF4-AF9 inh	FGF22 binding	RanGTP-Imp inh	ALR H2O2 inh
CC12CCC(=O)N1C(C(=O)OCC(=O)Nc1ccc(C(F)(F)F)cc1)CS2 (stereo not given)	/	0	/	-1	2	1.4	-6.7	i	/	54
O=C(NCc1cccnc1)c1ccc(COc2ccc(Cl)cc2)cc1	0	22	16	-2	-2	-11	-2.6	i	-1.9	/
N#Cc1c(-c2ccccc2)ccn(Cc2cccc(Cl)c2)c1=O	13	10	-3	/	/	/	/	/	7.7	-6
COc1ccc(C2CCCN2C(=O)Nc2ccc(F)cc2)cc1OC (stereo not given)	-7	-6	0	-13	-24	-1.0	-8.4	i	-1.8	6
CN(C)c1ccc(CNC2CC(C)(C)NC(C)(C)C2)cc1	-32	3	23	/	/	/	/	/	-2.0	41
COc1ccc(Cn2c(-c3ccco3)nc3c(c(=O)c4ccccc4n3C)c2=O)cc1	12	/	15	7	2	21	-14	i	0.6	-17
Cc1ccc(NC(=O)C(C)[n+]2ccccc2)cc1[N+](=O)[O-] (stereo not given)	1	0	-25	8	9	1.3	4.4	i	-4.2	-1
Cc1ccccc1NC(=O)N1CCCC1C(=O)NCc1cccs1 (stereo not given)	-2	5	-4	/	/	/	/	/	-3.5	-3
Nc1cccc(-c2cn(-c3cc4cc(C#CC5(O)CCCCC5)ccc4oc3=O)nn2)c1	/	-6	/	1	7	-5.5	1.4	i	/	3
O=C1C=C(c2cccs2)C[C@H](c2ccccc2)[C@H]1n1nnc([N+](=O)[O-])n1	50	101*	-10	/	/	/	/	/	-2.3	-77
O=S(=O)(c1ccc2nc(N3CCN(c4ccccc4)CC3)ccc2c1)N1CCCCC1	-22	-7	-6	5	21	-2.4	-2.5	i	-1.6	1
CCc1ccccc1OCC(=O)N(CC)CC(=O)NCc1ccc(F)cc1	2	-2	/	-9	-9	-4.2	-1.0	i	/	-2
COCC(C)NCc1ccccc1C (stereo not given)	5	-1	7	/	/	/	/	/	1.7	-3
CN1CCN(C(=O)c2ccc(N(Cc3ccccc3Cl)S(C)(=O)=O)cc2)CC1	12	3	-2	/	/	/	/	/	-0.7	0
CS(=O)(=O)c1cnc(-c2cccnc2)nc1N	-15	/	-9	16	13	6.2	-0.6	i	2.1	-1
O=C(Nc1ccccc1)O[C@@H]1C[C@H]2CCC(=O)N3CC[C@@H](C1)[C@@H]23	-7	-3	-10	/	/	/	/	/	?	0
CC12CCC(C(=O)Nc3cccc(NC(=O)C45CCC(C)(C(=O)O4)C5(C)C)n3)(OC1=O)C2(C)C	6	3	0	/	/	/	/	/	4.4	-3
O=C(Nn1cnnc1)c1cc(Cl)cc(Cl)c1	-1	2	-1	9	8	0.3	-0.4	i	?	14
CS(=O)(=O)N(CC(=O)N1CCCC1)Cc1ccccc1	-13	3	-6	21	14	0.4	-0.7	/	2.8	-6
c1ccc2c(c1)nnn2-c1ncnc2sccc12	7	-4	4	5	10	0.1	-1.7	i	4.0	/
C=CCNC(=S)N/N=C(\C)c1cccnc1	-15	-1	-1	27	32	0.1	-2.6	/	0.9	83*
Cc1cc(/C=C(\C#N)C(=O)OCC(=O)Nc2ccc(OC(F)F)cc2)c(C)n1CC(C)C	5	4	6	/	/	/	/	/	-2.7	-3
O=C(O)c1ccc(S(=O)(=O)N2CCC3(CC2)CC(=O)c2ccccc2O3)cc1	-7	-5	5	-1	-6	-0.6	6.7	i	0.5	-9
CCCNC(=O)c1ccc(N2CCC3(CC2)CC(c2ccc(Cl)cc2)=NO3)c([N+](=O)[O-])c1	12	/	-19	10	13	16	5.9	i	-0.7	2
COc1cc(CN(CCc2c(C)[nH]c3ccc(C)cc23)C(=S)NC(C)(C)C)cc(OC)c1OC	16	0	-5	-3	-26	6.1	7.9	i	-0.5	/
Cc1cc(S(=O)(=O)N(Cc2ccccc2)Cc2ccc(N(C)C)cc2)ccc1-n1cnnn1	45	10	4	7	2	-5.7	12	i	2.0	2
COc1cc(/C=N\NC(=O)C2CC3C=CC2C3)ccc1O (stereo not given)	-15	-1	-5	/	/	/	/	/	-1.1	100*

Source: PubChem
